# Screening data: PubChem BioAssay, National Center for Advancing Translational Sciences (NCATS)
# Vaccinia mCherry: inhibitors of vaccinia virus infection (mCherry reporter signal); Vaccinia virus mCherry reporter infection, fluorescence; about a quarter of the inactives have no number; Potency, µM (titrated, usually from 36.5 µM), without a hit: at the highest dose activity change, negative = inhibition, hits mostly inhibitors; 0.63% of 310,000 active; AID 720579; active = well fitted inhibition curve with a large enough effect; inconclusive = small, poorly fitted or top-dose-only effect; inactive = no such curve, though single readings can be large or run the other way; tested in A549 cells; also: nearly all actives have a fitted effect of over 35% in size; inactives centre near -10
# VACV Venus inh: inhibitors of vaccinia virus (Venus reporter); Vaccinia virus Venus reporter expression, fluorescence; AID 720580; 0.46% of 330,000 active; Potency, µM (titrated, usually from 36.5 µM), inactives show at the highest dose activity change, negative = inhibition, most hits filed as inhibitors; active means well fitted inhibition curve with a large enough effect; inconclusive means small, poorly fitted or top-dose-only effect; inactive means no such curve, though single readings can be large or run the other way; tested in A549 cells; also: nearly all actives have a fitted effect of over 30% in size; inactives centre near -10
# An asterisk follows results filed as active; i = inactive; ? = inconclusive; . = not tested or not shown; [ ] = another dose, or the depositor's remark. % is scaled to controls: 0 for no effect and ±100 for the full control effect; potency is read from the fitted curve at half-maximal effect.
# Start of the data: the first two entries (preview)
nr	SMILES	Vaccinia mCherry	VACV Venus inh
1	COc1ccc(-c2nc(CN3C(=O)CN=C(c4ccccc4Cl)c4cc(Cl)ccc43)c(C)o2)cc1OC	-19%	-26%
2	Cc1nnc(NC(=O)CSc2nc3c(c(=O)n2CCc2ccccc2)SC(C)C3)s1 (configuration not stated)	i	0%

# This part in full, previewed entries included:
nr	SMILES	Vaccinia mCherry	VACV Venus inh
1	COc1ccc(-c2nc(CN3C(=O)CN=C(c4ccccc4Cl)c4cc(Cl)ccc43)c(C)o2)cc1OC	-19%	-26%
2	Cc1nnc(NC(=O)CSc2nc3c(c(=O)n2CCc2ccccc2)SC(C)C3)s1 (configuration not stated)	i	0%
3	COc1ccc(-c2cc(C(=O)NCCc3ccccc3)no2)cc1OC	-16%	-6%
4	CSc1nnc(NC(=O)Cc2coc3cc(C)ccc23)s1	-12%	-7%
5	CCC(C)n1c(SCC(=O)NC2CCCC2)nc2ccccc2c1=O (configuration not stated)	-4%	-21%
6	CC(Oc1ccc2c3c(c(=O)oc2c1)CCC3)C(=O)NCC1CCC(C(=O)O)CC1 (configuration not stated)	-8%	0%
7	C=CCn1c2ccccc2c(=O)c2cc(C#Cc3cc(OC)cc(OC)c3)ccc21	-4%	-16%
8	Cc1ccc(S(=O)(=O)N2[C@H](CC(=O)c3ccc(F)cc3)OC[C@@H]2C)cc1	-24%	-13%
9	Cc1cc2nc(-c3ccccc3)c(Cc3ccsc3)n2c(C)c1Br	35%[activator]	5%
10	Cc1ccc(S(=O)(=O)N(Cc2ccc(Cl)cc2)c2ccccc2C(=O)O)cc1	-21%	-21%
11	N#Cc1c(NCCCO)nc(-c2ccccc2)c2c1CCCC2	-6%	-15%
12	CC(=NCc1ccccc1)C1=C(O)COC1=O	.	-19%
13	Cn1c(=O)c2c(SCC(=O)N3CCCc4ccccc43)nc(C3CC3)nc2n(C)c1=O	-18%	?
14	CC1CC2(CCCCC2)N2C(=O)C(=O)c3cccc1c32 (configuration not stated)	-18%	-10%
15	OC(c1ccc(F)c(F)c1)c1nc(-c2cc(F)cc(F)c2)cs1 (configuration not stated)	-13%	-26%
16	CCC(C)(C)NC(=O)c1ccc2c(c1)N(CC(=O)NC1CCCC1)C(=O)C(C)(C)O2	i	0%
17	CC(C)(C)NC(=O)C1CCCN(S(=O)(=O)c2ccc(-n3cnnn3)cc2)C1 (configuration not stated)	-11%	-4%
18	CCN1c2ccccc2-c2nc(SCC(=O)Nc3cccc(C)c3C)ncc2S1(=O)=O	-16%	5%
19	O=C(N/N=C/c1ccccn1)c1ccc(Br)o1	-22%	-12%
20	CC1CCCC(C(=O)OCc2ccccc2)N1 (configuration not stated)	-15%	-9%
21	COc1ccccc1NS(=O)(=O)c1cccc(C(=O)NCC(c2ccco2)N(C)C)c1 (configuration not stated)	-11%	-5%
22	COc1ccc2c3c1O[C@H]1C(=O)CC[C@H]4[C@@H](C2)N(C)CC[C@]314	i	-11%
23	Cc1c(C(C)C[C@H](C)O)oc(=O)c2c1Oc1c(C)c(C(C)C[C@H](C)O)oc(=O)c1C2 (some centres not stated)	i	-16%
24	CC/C(Cc1ccccc1)=N/NC(=O)CCn1nnc2ccccc21	-11%	-27%
25	CCOc1ccc(C(=O)Nc2c(C(N)=O)oc3ccccc23)cc1	-4%	-22%
26	O=C(Nc1ccc(F)c(Cl)c1)C1Cc2c(-c3ccco3)ccnc2O1 (configuration not stated)	18%	-4%
27	COc1ccc(-c2nc3ccccc3n2OC(C)C(=O)O)cc1 (configuration not stated)	i	-8%
28	CC(=O)c1c(C)oc2ccc(N(C(=O)c3ccncc3)S(=O)(=O)c3ccc(C)cc3C)cc12	-27%	-18%
29	CCCNC(=O)CS(=O)(=O)c1ccccc1	i	-2%
30	CCc1ccc(NC(=O)CSc2nc3ccccc3nc2Cc2ccc(C)cc2)cc1	-14%	-12%
31	Cc1nn(-c2ccccc2[N+](=O)[O-])c(=O)c2ccccc12	-3%	-4%
32	CC1CCCC(C)N1C(=O)CSc1ccc(-c2ccc3c(c2)OCCO3)nn1 (configuration not stated)	-18%	-15%
33	COc1ccc(Cl)cc1NC(=O)CNc1ccc(F)cc1C	i	-7%
34	CC(C)c1ccc(/C=C2\SC(N3CCCC3)=NC2=O)cc1	?	-28%
35	CCCc1nc2ccc(NC(=O)c3ccco3)cc2c(=O)n1Cc1ccc(Cl)cc1	?	-12%
36	COc1ccc(NC(=O)C(=O)NCCN2CCN(C(=O)c3cccs3)CC2)cc1	-7%	-13%
37	C#CCn1c(=NC(=O)c2cc(Cl)sc2Cl)sc2cc(S(N)(=O)=O)ccc21	-25%	-22%
38	Cc1cccc(NC(=O)[C@@H]2CCCN2C(=O)OC(C)(C)C)c1C	-9%	-6%
39	CCOc1ccccc1Nc1nnc(SCC(=O)NC(Cc2c[nH]c3ccccc23)C(=O)O)s1 (configuration not stated)	-10%	0%
40	CC(=O)c1ccc(-c2ccc(-c3cc(=O)oc4c(C(C)C)ccc(C)c34)cc2)cc1	-21%	?
41	CCN(CC)S(=O)(=O)c1ccc2oc(C(=O)N3CCCCCC3)c(C)c2c1	-16%	-6%
42	O=C(Oc1cc(=O)oc2ccccc12)c1cccnc1Cl	i	-19%
43	Cc1ccc2c(c1)C(=O)C(=O)N2CCOc1ccccc1	-16%	-13%
44	COc1cccc(-n2c(C)nc3c(cnn3-c3ccc(Cl)cc3)c2=O)c1	-2%	-15%
45	Cc1ccc(C)c(Cn2c(=O)c3c(nc4n3CCN4c3ccccc3)n(C)c2=O)c1	-10%	-4%
46	COc1cc(SC)ccc1C(=O)Nc1cc(C)c(OCC(=O)N2CCOCC2)c(C)c1	i	-24%
47	COc1ccccc1C(=O)COC(=O)c1cc(S(=O)(=O)N2CCCCC2)ccc1N1CCOCC1	-12%	-18%
48	COc1ccc(S(=O)(=O)N2CCCC2C(=O)Nc2nccs2)cc1 (configuration not stated)	.	-10%
49	Cc1cnc(CNc2ncnc3ccc(-c4ccccc4CN(C)C)cc23)cn1	-8%	6%
50	COc1ccc(C(=O)OCC(=O)c2ccc(CNC(C)=O)s2)cc1	-10%	-6%
51	COc1ccc(C2=NN(C(=O)c3ccco3)C(c3cccs3)C2)cc1OC (configuration not stated)	?	?
52	NC(=O)CSc1nnnn1-c1cccc(Cl)c1	-17%	-4%
53	COc1ccccc1N1CCN(C(=O)CN(C)S(=O)(=O)c2ccc(C)cc2)CC1	-25%	-22%
54	O=C(COC(=O)CN1C(=O)NC2(CCCC2)C1=O)Nc1ccc(C(F)(F)F)cc1[N+](=O)[O-]	?	-8%
55	CSc1nc(Oc2ccc(F)cc2)c2ccccc2n1	.	-22%
56	Cn1c(=O)c2cc(NC(=O)CCc3ccccc3)ccc2n1Cc1cccc(C(F)(F)F)c1	-12%	-24%
57	Cc1cccc(N2CCN(C(=O)c3nn(C)c4c3CS(=O)(=O)c3ccccc3-4)CC2C)c1 (configuration not stated)	-8%	-12%
58	CCn1cnc2c1c(=O)n(CC(=O)NCC(F)(F)F)c(=O)n2Cc1ccccc1	-12%	-3%
59	COc1cc(C2C3=C(CCCC3=O)Nc3c2c(C)nn3-c2cccc(C)c2)cc(OC)c1O (configuration not stated)	?	-7%
60	CCOc1ccc(C(=O)NCC(c2cccs2)N(C)C)cc1OCC (configuration not stated)	i	-25%

# Whole records as entered above:
# CCn1cnc2c1c(=O)n(CC(=O)NCC(F)(F)F)c(=O)n2Cc1ccccc1 across the screens: Vaccinia mCherry: -12%; VACV Venus inh: -3%
# COc1cccc(-n2c(C)nc3c(cnn3-c3ccc(Cl)cc3)c2=O)c1 across the screens: Vaccinia mCherry: -2%; VACV Venus inh: -15%
# Cc1ccc2c(c1)C(=O)C(=O)N2CCOc1ccccc1 across the screens: Vaccinia mCherry: -16%; VACV Venus inh: -13%

# Going on with the list.
nr	SMILES	Vaccinia mCherry	VACV Venus inh
61	CC1(c2ccc(Cl)cc2)NC(=O)N(CC(=O)NCc2ccc(F)cc2)C1=O (configuration not stated)	-23%	-15%
62	CC1CCCCN1C(=O)CSc1nc(N)nc(N)n1 (configuration not stated)	-14%	-13%
63	COc1ccc(-c2nc(CS(=O)CC(=O)NCc3ccc(F)cc3)c(C)o2)cc1OC (configuration not stated)	-13%	-16%
64	COc1ccc(Nc2nc(NC(C)C)nc3ccsc23)cc1OC	?	?
65	Nc1nc(Nc2cccc(C(F)(F)F)c2)sc1C(=O)c1ccccc1	-11%	-4%
66	COc1cccc(CNc2nc3c(-c4cccc(C)c4)nnn3c3ccccc23)c1	-16%	-5%
67	COc1ccc(S(=O)(=O)N(C)[C@H]2C[C@H]3c4cc(N5CCN(C)CC5)ccc4CCN3C(=O)[C@H]2[C@H](C)O)cc1	i	-20%
68	CN(C(=O)c1ccc(NC(=O)Cc2ccc(NC(=O)C3CCCN(S(=O)(=O)c4cccc([N+](=O)[O-])c4)C3)cc2)cc1)C1CCCC1 (configuration not stated)	?	-23%
69	OC(COCc1ccccc1)COCc1ccccc1	-17%	-18%
70	CCOc1ccc(C(=O)NCCc2sc(-c3ccc(F)cc3)nc2C)cc1	-23%	-13%
71	COc1cccc(C2C(=O)N(C3CCCCC3)CC(=O)N2CCc2ccc(OC)c(OC)c2)c1 (configuration not stated)	-15%	-10%
72	O=C(NCc1ccccc1)c1ccc(S(=O)(=O)N2CCCC2)cc1	-15%	-10%
73	CCOC(=O)C1CCN(C(=O)c2ccc3c(c2)N=C(CC)c2cc(C)ccc2S3)CC1	-4%	-10%
74	Cc1cc(=O)oc2c(N)c(O)ccc12	i	-4%
75	CC(C)c1ccc(NC(=O)C2CCCN2S(=O)(=O)c2ccccc2F)cc1 (configuration not stated)	-26%	-16%
76	Cc1ccc(S(=O)(=O)N2CCN(C(=O)CC(C)n3cncn3)CC2)cc1 (configuration not stated)	-11%	-8%
77	COc1ccccc1NS(=O)(=O)c1ccc2oc(=S)[nH]c2c1	i	5%
78	COc1ccc2c(c1)CCc1c(C(=O)Nc3ccc(C#N)cc3)noc1-2	-17%	0%
79	O=C(Nc1ccc([N+](=O)[O-])cc1)c1ccccc1	i	-8%
80	COc1ccc(C2N(Cc3ccccc3)CC(=O)N2/N=C(\C)c2ccccc2)cc1 (configuration not stated)	i	-12%

# Some values from above:
# CC1(c2ccc(Cl)cc2)NC(=O)N(CC(=O)NCc2ccc(F)cc2)C1=O (configuration not stated) @ Vaccinia mCherry: -23%
# COc1cccc(CNc2nc3c(-c4cccc(C)c4)nnn3c3ccccc23)c1 @ VACV Venus inh: -5%
# COc1ccc(C2N(Cc3ccccc3)CC(=O)N2/N=C(\C)c2ccccc2)cc1 (configuration not stated) @ VACV Venus inh: -12%
# CC(C)c1ccc(NC(=O)C2CCCN2S(=O)(=O)c2ccccc2F)cc1 (configuration not stated) @ VACV Venus inh: -16%

# Further records follow.
nr	SMILES	Vaccinia mCherry	VACV Venus inh
81	CCCS(=O)(=O)NC(=O)C1(C)CCN1C(=O)Cc1ccc(Cl)cc1Cl (configuration not stated)	16%	8%
82	S=c1[nH]nc(-c2cccnc2)n1C1CCCCC1	-12%	-12%
83	CCCC(c1nnnn1C(C)(C)CC)N(CCCO)Cc1cc2cc(C)cc(C)c2[nH]c1=O (configuration not stated)	.	?
84	COc1ccc(-c2nc3ccccn3c2/N=C/c2ccc(OC)c(OC)c2)cc1O	-16%	-12%
85	COc1cccc(NC(=O)Cn2cc(S(=O)(=O)N3CCCC3)c(S(=O)(=O)N3CCCC3)c2)c1	5%	-1%
86	Cc1ccc(S(=O)(=O)c2cnc(SCC(=O)Nc3ccc4c(c3)OCCO4)[nH]c2=O)cc1C	-5%	6%
87	O=C(CS(=O)c1ccc(C(F)(F)F)cc1[N+](=O)[O-])Oc1ccccc1 (configuration not stated)	-33%	-21%
88	O=C(CN1C(=O)NC2(CCc3ccccc32)C1=O)NCCc1ccccc1 (configuration not stated)	-9%	-2%
89	Cn1c(CN2CCOCC2)nnc1SCC(=O)Nc1cc(Cl)ccc1Cl	-20%	-14%
90	O=S1(=O)CC(N2CCN(CCO)CC2)CN1Cc1cn(Cc2ccc(Cl)cc2)nn1 (configuration not stated)	-8%	-6%
91	CCOC(=O)c1cnn(C)c1NC(=O)c1ccc([N+](=O)[O-])cc1	0%	-4%
92	CCCc1cc(C(=O)N/N=C/c2ccc(CC)s2)c2ccccc2n1	-19%	?
93	Cc1nn(CCCC(=O)N2CCN(c3ccc(F)cc3)CC2)c(C)c1[N+](=O)[O-]	-8%	-12%
94	Cc1ccccc1C(=O)NC(=S)Nc1ccccc1C(=O)O	i	-14%
95	Cc1ccc(-c2nc3ccccc3c(C(=O)NCc3cccs3)c2C)cc1	.	-12%
96	Nc1nc(NCCc2ccc(O)cc2)nc2nc(-c3ccco3)nn12	-24%	-11%
97	Cc1ccc(S(=O)(=O)N2[C@@H](c3ccc4c(c3)OCO4)C(C(=O)O)=C[C@H]2CC2CCCC2)cc1	-4%	-15%
98	CSc1cccc(NS(=O)(=O)c2ccc3c(c2)NC(=O)C(C)C(=O)N3)c1 (configuration not stated)	i	1%
99	O=C(COC(=O)CN1C(=O)c2ccccc2C1=O)Nc1ccccc1	-25%	-6%
100	Cn1c(CC(=O)Nc2ccccc2)nnc1SCC(=O)Nc1ccc(N2CCOCC2)cc1	-6%	7%
101	CCCCC(C(=O)O)C(C)CC(=O)Nc1ccn(-c2ccccc2)n1 (configuration not stated)	.	-16%
102	CN(CC(=O)Nc1ccccc1Cl)C(=O)COC(=O)c1cc([N+](=O)[O-])ccc1N1CCOCC1	-8%	-18%
103	CC1=CC(=C(C#N)c2nc3ccccc3s2)C=C(C)N1CC1CCCO1 (configuration not stated)	-23%	-25%
104	COC(=O)/C(C#N)=C/c1ccc(-c2ccc(S(N)(=O)=O)cc2)o1	-20%	-2%
